rRNA inh HTS: inhibitors of bacterial rRNA selective over humanized ribosomes | GFP signal change (wild-type ribosome), % (test concentration not listed) | E. coli WT GFP vs humanized-ribosome RFP mutants, fluorescence, 24 h; active compounds read low; DMSO median 0, no signal -100 | actives 1.6% (n = 350,000);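 active = significant combined selectivity score with lowered wild-type GFP, culture density cut under 30%, mutant RFP and density less affected; inactive = any of these conditions unmet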; also: one replicate is shown; some compounds called inactive have numbers as strong as hits
FGF22 binding: shifts melting point of recombinant human FGF22; calls only at 9.99 µM; Q9HCT0; actives 1.5% (n = 340,000); AID 651658; recombinant FGF22 thermal shift, SYPRO orange fluorescence; percent of sucrose octasulfate shift, DMSO zero;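 active = melting point raised past a set limit in the mean and every replicate; three in four hits are not shown here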
Target sequence (Q9HCT0 whole entry, looked up): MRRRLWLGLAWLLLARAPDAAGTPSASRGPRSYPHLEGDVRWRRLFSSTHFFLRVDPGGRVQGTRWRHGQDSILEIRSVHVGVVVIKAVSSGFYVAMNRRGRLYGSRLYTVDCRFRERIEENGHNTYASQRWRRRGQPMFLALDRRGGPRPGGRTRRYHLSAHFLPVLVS
HNF4A DNA FP: change in binding of human HNF4 alpha to DNA; P41235; activity change, % at 10 µM; actives 0.3% (n = 360,000); HNF4a-FITC DNA binding, fluorescence polarization, 1 h; in the data active = activity change above about 30%, passing the limit was not always enough;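 also: controls were the assay level and a saturating level of protein; the project sought stronger binding though the title names inhibitors; some compounds called inactive have numbers as strong as hits; positive values seem to mean higher polarization but the record does not say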
Target sequence (P41235 whole entry, looked up): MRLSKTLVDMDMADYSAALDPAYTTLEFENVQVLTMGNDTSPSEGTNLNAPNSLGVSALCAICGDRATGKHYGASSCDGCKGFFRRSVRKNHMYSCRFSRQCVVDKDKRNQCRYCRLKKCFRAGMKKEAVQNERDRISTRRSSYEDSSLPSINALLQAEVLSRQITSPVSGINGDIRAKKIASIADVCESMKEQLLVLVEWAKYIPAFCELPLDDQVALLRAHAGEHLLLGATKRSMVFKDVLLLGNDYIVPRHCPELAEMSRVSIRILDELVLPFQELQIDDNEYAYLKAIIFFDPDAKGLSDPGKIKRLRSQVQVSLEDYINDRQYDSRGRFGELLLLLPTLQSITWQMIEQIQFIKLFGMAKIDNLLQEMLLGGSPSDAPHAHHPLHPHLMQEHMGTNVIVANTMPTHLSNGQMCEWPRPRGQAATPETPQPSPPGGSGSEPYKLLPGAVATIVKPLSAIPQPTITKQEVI
ALR H2O2 inh: human ALR oxidase inhibition via reduced H2O2; AID 485317; inhibition, % (concentration not given with the values); P55789; purified ALR, DTT oxidation, H2O2 HRP-luminol luminescence; actives 3.8% (n = 290,000);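 active = mean and each replicate at 75% or more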;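 also: stock transfer was 7.5 nL into about 7.5 µL; 0% = neutral wells and 100% = wells with inactivated enzyme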
Beta2AR agonist: agonists of human beta-2 adrenergic receptor inducing internalization; Am2.2-beta2AR cells, FAP receptor internalization, flow cytometry; reference of the scale not given here; P07550; actives 0.43% (n = 340,000); AID 504454; response, % (no concentration beside the values);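 active = response above a set limit, near 3 SD of response in nonfluorescent compounds, cut at about 42% in these data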;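 also: stock transfer was 100 nL into about 11 µL; a reference agonist was the positive control; negative values mostly stem from fluorescent compounds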
Target sequence (P07550 whole entry, looked up): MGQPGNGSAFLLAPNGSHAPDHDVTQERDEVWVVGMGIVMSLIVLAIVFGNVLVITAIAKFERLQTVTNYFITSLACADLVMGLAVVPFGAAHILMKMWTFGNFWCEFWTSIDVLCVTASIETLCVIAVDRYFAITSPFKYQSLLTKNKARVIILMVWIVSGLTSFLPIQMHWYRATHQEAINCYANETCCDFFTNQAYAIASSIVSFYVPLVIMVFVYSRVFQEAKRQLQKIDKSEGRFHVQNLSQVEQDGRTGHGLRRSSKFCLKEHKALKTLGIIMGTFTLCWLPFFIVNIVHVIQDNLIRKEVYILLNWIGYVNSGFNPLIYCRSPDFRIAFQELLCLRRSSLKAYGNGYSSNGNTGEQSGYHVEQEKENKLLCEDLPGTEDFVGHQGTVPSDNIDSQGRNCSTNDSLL
UCH37 inh: blocks the human deubiquitinase UCH37; purified proteasome/UCH37, Ub-AMC cleavage fluorescence; inhibition, % (test concentration not listed); actives 0.33% (n = 330,000); AID 588478;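 active = mean of two replicates above 20%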;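 also: 0% = compound-free wells with enzyme and 100% = wells lacking proteasome; stock transfer was 100 nL into about 20 µL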
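Schedule: 30 min plus 25 min, room temperature / Material: human UCH37 within purified proteasomes / Technique: AMC fluorescence intensity at 355/460 nm / Buffer or medium: pH 7.4 Tris-HCl (50 mM) with ovalbumin, ATP-MgCl2, DTT / Controls: wells without proteasome as full block, compound-free enzyme plus substrate as uninhibited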
Ecoli growth: inhibitors of Escherichia coli growth; actives 0.21% (n = 330,000); OD600, 23 h; active compounds read low; OD600 absorbance (no concentration beside the values);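 active = OD600 absorbance below the run mean of sample wells minus 3.6 SD, in any replicate, cut at about 0.56 in these data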;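 also: stock transfer was 300 nL into about 60 µL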
rRNA inh HTS OD600: recorded beside rRNA inh HTS, whose call it bears; OD600 change, %; measured here: OD600 growth;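 optical density of the mix in the first replicate; 0 = DMSO median and -100 = no signal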
rRNA inh HTS RFP: also measured in rRNA inh HTS; calls as there; RFP signal change, %; measured here: RFP humanized mutant strains;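 first replicate; 0 = DMSO median and -100 = no signal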
An asterisk follows results filed as active; i = inactive; . = not tested or not shown. These rows are one share of the data, so the mix of outcomes need not match the whole.

structure,rRNA inh HTS,rRNA inh HTS OD600,rRNA inh HTS RFP,FGF22 binding,HNF4A DNA FP,ALR H2O2 inh,Beta2AR agonist,UCH37 inh,Ecoli growth
COc1n[nH]c(C(=O)NCc2ccccc2)c1[N+](=O)[O-],6.3,1.6,-1.5,i,-4.8,-7.7,-2.8,8.0,0.65
CC#CCc1cc2ccccc2c(=O)o1,.,.,.,i,1.8,21.2,1.8,6.6,0.726
CCCCn1cnc(C(=O)OCC)c1N,.,.,.,.,-4.8,-2.1,-15.3,0.4,0.698
O=C1CCCCN1CCCC(=O)N1CCCC(Nc2ccc(F)cc2)C1 (stereo unspecified),3.6,11.0,-1.0,i,-2.1,17.9,3.1,2.4,0.675
CCC(=O)Nc1ccc(Oc2ccc3c(c2)C(=O)N(c2ccc(O)cc2)C3=O)cc1,.,.,.,.,-2.4,-11.9,4.2,6.3,0.734
CN(C)c1ccc(/C=C/c2ccc3ccccc3[n+]2C)cc1,.,.,.,.,12.5,98.4*,-16.5,25.1*,0.294*
c1ccc2cc3[nH]c(CN4CCOCC4)nc3cc2c1,.,.,.,.,0.0,-4.8,-8.7,-2.1,0.715
Cn1c(Cn2cnc(Cl)c2Cl)nc2ccccc21,.,.,.,.,-2.0,-5.2,-2.9,-3.8,0.734
C/C(=N\NC(=O)c1ccc(NS(=O)(=O)c2cccs2)cc1)c1ccc(Cl)cc1,.,.,.,.,1.5,10.7,-1.9,.,.
COc1ccc(C)cc1S(=O)(=O)NC1CCCC1,.,.,.,.,-3.9,0.9,17.0,1.1,0.686
CC(=NCc1ccccc1)C1=C(O)COC1=O,.,.,.,.,-0.3,2.2,-17.9,1.0,0.684
O=C(Nc1nc2c(s1)CN(Cc1ccccc1)CC2)C1CCC1,9.3,12.1,0.4,i,7.6,-4.5,3.3,-2.2,0.652
CC(=O)NC(C1C(=O)CC(C)(C)CC1=O)(C(F)(F)F)C(F)(F)F,.,.,.,.,3.5,-0.7,2.2,3.9,0.662
O=C(CN1C(=O)NC2(CCCCC2)C1=O)N1CCc2ccccc2C1,6.6,7.0,4.3,i,1.1,2.8,-0.9,2.6,0.683
CC1(C(=O)Nc2ccc(F)c(Cl)c2)Cc2c(-c3ccccc3)ccnc2O1 (stereo unspecified),-0.8,-26.9,6.7,i,1.3,.,.,.,.
CNC(=O)c1cc(NC(=O)N(CCC#N)CCN(C(=O)NC(Cc2ccccc2)C(=O)NC(CC(C)C)C(=O)NC)c2ccccc2)ccc1OC (stereo unspecified),2.7,-2.2,5.2,i,-0.8,.,-20.6,.,.
CC1CCCN(C(=O)CN2CCN(C(=O)c3ccco3)CC2)C1 (stereo unspecified),.,.,.,.,-3.1,8.2,-3.2,0.5,0.669
COc1cc(/C=N/NC(=O)c2ccc3nc[nH]c3c2)ccc1O,-2.3,9.0,-0.5,i,0.8,.,-1.7,.,.
Cc1ccc(C)c(NC(=O)COC(=O)c2cc(=O)c3ccccc3o2)c1,.,.,.,.,1.0,.,-3.2,2.2,0.7
CC(=O)N1c2c(cc(Br)cc2S(=O)(=O)N2CCOCC2)CC1C (stereo unspecified),.,.,.,.,1.6,-1.4,3.1,0.1,0.726
[O-][N+]12CC[N+]([O-])(CC1)c1ccccc12,.,.,.,.,1.9,-3.0,2.7,4.3,0.766
COc1ccc(CNC(=O)CN(C(=O)CCC(=O)Nc2ccccn2)c2ccc(C)cc2)cc1,-4.3,1.8,-0.7,i,-3.5,.,1.1,2.1,0.662
Cc1c(/C=N/NC(N)=O)c2ccccn2c1C(=O)c1ccc(F)cc1,-11.7,-17.8,-4.5,i,3.8,23.5,-5.5,.,.
C#CCOc1ccccc1CNC1CCN(Cc2ccccc2)CC1,13.1,13.3,2.1,i,2.5,.,0.7,2.6,0.66
Nc1cccc2c1C(=O)N(C(=O)c1ccc(Cl)c(S(=O)(=O)N3CCCCCC3)c1)C2=O,.,.,.,.,-12.7,-0.2,2.0,-108.8,0.686
Nc1c(C(=O)c2ccccc2O)cnn1-c1ccc(S(=O)(=O)N2CCOCC2)cc1[N+](=O)[O-],12.1,-1.5,1.8,i,.,-1.5,.,1.7,0.694
COc1cc(C(=O)COC(=O)c2cccs2)cc(OC)c1OC,-3.2,6.7,4.7,i,1.1,-3.9,2.2,4.1,0.679
c1ccc2c(-c3[nH]ncc3CNCCCn3ncc4ccccc43)cccc2c1,0.0,-0.2,0.3,i,2.2,-1.9,2.3,-4.4,0.63
COc1ccc(-c2nc(SC(C)C(=O)c3c(N)n(C)c(=O)n(C)c3=O)n[nH]2)cc1 (stereo unspecified),0.1,-8.0,3.0,i,-1.3,.,6.3,-1.5,0.706
CCOC(=O)c1nn(-c2ccc(Cl)cc2C)ccc1=O,3.7,3.1,3.3,i,1.8,-16.4,-3.2,3.9,0.645
CC(=O)NS(=O)(=O)c1ccc(NC(=O)c2cc(-c3cccs3)nc3ccccc23)cc1,.,.,.,.,2.6,-3.8,-7.1,-103.9,0.664
COc1ccc(N2c3ccccc3CN(Cc3ccccc3)[C@@H](C)[C@H]2Cc2cccnc2)cc1,-7.6,-13.7,8.0,i,-3.0,.,.,.,.
N#CC1=C(N)Oc2c(ccc3cccnc23)C1c1ccncc1 (stereo unspecified),-20.8,-17.5,-9.5,i,-2.7,2.6,-6.9,-2.0,0.702
O=C(Nc1cccc(S(=O)(=O)N2CCOCC2)c1)c1cc2ccccc2o1,-17.1,-11.1,0.1,i,-0.3,-1.9,-1.8,2.7,0.688
Cc1cccc(C)c1OCC(=O)Nc1cccc(C(=O)O)c1,-20.4,-11.1,-7.1,i,-1.6,.,2.4,2.5,0.689
CSc1nc(N)c2c3c(sc2n1)CN(C)CC3,15.2,12.9,-0.3,i,0.7,-27.9,7.9,.,.
COc1ccc(NC(=O)c2nc[nH]c2C(=O)N[C@H](C)c2ccccc2)cc1,-44.6,-73.5,-22.3,i,-2.1,12.1,15.7,0.3,.
CC(=O)c1cc(C(=O)N2CCc3c([nH]c4ccccc34)C2C2CCCCC2)[nH]n1 (stereo unspecified),-33.8,-56.8,14.5,i,5.0,.,3.4,-6.5,0.654
O=C(COc1ccc(Cl)cc1)N(Cc1ccco1)C1CCS(=O)(=O)C1 (stereo unspecified),-5.4,3.2,7.1,i,-1.7,.,3.3,1.9,0.636
CCc1ccc2c(c1)NC(=O)C2(C)Cc1ccccc1OC (stereo unspecified),-5.7,-34.1,-4.5,i,-0.8,.,.,.,.
OC(COCC1COc2ccccc2O1)CN1CCCCC1 (stereo unspecified),7.4,5.0,0.0,i,1.4,3.9,3.5,1.5,0.714
Cc1nc(N/N=C/c2cccc(F)c2)cc(N2CCOCC2)n1,-3.0,5.8,-1.8,i,1.7,6.2,3.4,.,.
CC1(C)S[C@@H]2[C@H](NC(=O)[C@H](N)c3ccccc3)C(=O)N2[C@H]1C(=O)OC1OC(=O)c2ccccc21 (stereo partly specified),14.1,18.6,3.0,i,-1.3,4.8,6.0,0.2,.
COc1ccc2cc(CN(CC3COCCO3)S(=O)(=O)c3ccc(Cl)cc3)c(=O)[nH]c2c1 (stereo unspecified),.,.,.,.,0.0,10.2,-6.6,-0.8,0.739
COC(=O)C1=C(C)NC(C)=C(C(=O)OC)C1c1ccc(-c2cccc([N+](=O)[O-])c2)o1,0.7,-1.6,3.1,i,4.0,6.8,3.9,2.9,0.596
CNC(=O)CN(c1cc([N+](=O)[O-])ccc1OC)S(C)(=O)=O,.,.,.,.,-2.6,.,9.8,2.1,0.635
CCC(CO)Nc1ccn2nc(-c3cccc(Cl)c3)cc2n1 (stereo unspecified),-12.5,-20.9,-0.1,i,0.1,.,.,.,.
Cc1ccc(S(=O)(=O)N2CCN(CC(=O)N/N=C/c3ccc(C)o3)CC2)cc1,.,.,.,.,-1.3,0.6,-1.1,.,.
Nn1c(SCC(=O)NCCc2ccc(F)cc2)nnc1C1CCCCC1,-2.2,0.0,-2.4,i,2.9,-23.4,7.4,-0.3,0.695
O=C(NCc1ccccn1)C1CCN(S(=O)(=O)c2ccccc2F)CC1,5.2,6.7,-0.6,i,-3.4,.,-2.5,-0.4,0.7
CC1CCN(c2c(NCc3ccc(C(=O)NCCc4ccc(Cl)cc4)cc3)c(=O)c2=O)CC1,-3.0,3.5,0.7,i,3.1,9.7,1.5,5.0,0.759
CCOc1ccc(S(=O)(=O)N2CCC(C(=O)OC(C)C(=O)NC3CCCCC3C)CC2)cc1 (stereo unspecified),9.5,9.8,0.0,i,-0.6,-0.1,2.4,1.9,0.693
Cc1cc(C)c(OCC(=O)Nc2ccc3c(c2)OCO3)cc1C,.,.,.,.,1.8,0.2,11.2,2.0,0.662
Cn1c(N)c(C(=O)CSc2nc(C3CC3)n(-c3ccccc3)n2)c(=O)[nH]c1=O,5.4,5.8,0.0,i,-1.5,5.9,-20.9,-0.3,0.7
CCOc1ccccc1C(=O)N/N=C/c1ccoc1,3.6,15.6,-0.2,i,-1.4,0.6,-12.2,.,.
Cc1cc(C)c(S(=O)(=O)NCc2cn3c(C)csc3n2)c(C)c1,.,.,.,.,-4.6,-8.7,-1.2,-2.8,0.7
CCOc1ccc(NS(=O)(=O)c2ccc(Cl)c(C(=O)N(C)Cc3cccnc3)c2)cc1,1.3,-5.9,0.6,i,1.1,-9.9,-3.8,2.7,0.704
Cc1oc2c(CN3CCCC3)c(O)ccc2c(=O)c1-c1ccc(Cl)cc1,.,.,.,.,-0.5,-0.8,-18.0,-213.3,.
Cc1ccc(C2=NNC(=O)C(c3ccc(Cl)cc3)C2)cc1 (stereo unspecified),.,.,.,.,3.1,1.0,-2.9,0.9,0.736
COc1ccc(C2C(C(=O)NCc3ccccc3)=C(C)Nc3ncnn32)cc1OC (stereo unspecified),.,.,.,.,-0.3,2.1,-3.1,3.4,0.686

The list continues.
structure,rRNA inh HTS,rRNA inh HTS OD600,rRNA inh HTS RFP,FGF22 binding,HNF4A DNA FP,ALR H2O2 inh,Beta2AR agonist,UCH37 inh,Ecoli growth
CCOC(=O)C(C)Sc1nc2ccccc2c(=O)n1CC (stereo unspecified),.,.,.,.,0.4,-0.1,3.9,8.8,0.743
COc1cccc(N/C=C(\C#N)c2ccc(OCCCF)cc2)c1,.,.,.,.,-1.1,3.5,-0.6,3.9,0.724
O=C(NN1C(=O)C2C3C=CC(C3)C2C1=O)c1cccc(Cl)c1 (stereo unspecified),.,.,.,.,0.3,1.9,-4.7,5.0,0.706
CNC(=O)c1nnn(-c2ccccc2)c1C(=O)NC,.,.,.,.,-5.8,-7.7,-4.9,5.1,0.769

Structural class: the entries above containing two or more sulfur atoms (4)
structure,rRNA inh HTS,rRNA inh HTS OD600,rRNA inh HTS RFP,FGF22 binding,HNF4A DNA FP,ALR H2O2 inh,Beta2AR agonist,UCH37 inh,Ecoli growth
C/C(=N\NC(=O)c1ccc(NS(=O)(=O)c2cccs2)cc1)c1ccc(Cl)cc1,.,.,.,.,1.5,10.7,-1.9,.,.
CC(=O)NS(=O)(=O)c1ccc(NC(=O)c2cc(-c3cccs3)nc3ccccc23)cc1,.,.,.,.,2.6,-3.8,-7.1,-103.9,0.664
CSc1nc(N)c2c3c(sc2n1)CN(C)CC3,15.2,12.9,-0.3,i,0.7,-27.9,7.9,.,.
Cc1cc(C)c(S(=O)(=O)NCc2cn3c(C)csc3n2)c(C)c1,.,.,.,.,-4.6,-8.7,-1.2,-2.8,0.7

Source: PubChem (several laboratories)
